# Screening data from PubChem.
# KCNQ2 pot: enhances the rat KCNQ2 potassium channel; CHO-K1 KCNQ2, FluxOR thallium flux fluorescence; active compounds read high; O88943; B-score at 10 µM; AID 2239; 310,000 compounds, 0.54% hits;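 active means fluorescence ratio B-score at least 3 SD of library B-scores, with initial fluorescence B-score within 3 SD, cut at about 5.3 in these data; same plate scores as AID 2156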;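 further: B-score of peak minus minimum over baseline fluorescence ratio after K+ and Tl+ stimulus; positive B-score means potentiation of KCNQ2 with more thallium influx and brighter signal; only the inactives scoring about 0 or higher are listed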
# Target sequence (O88943 whole entry, looked up): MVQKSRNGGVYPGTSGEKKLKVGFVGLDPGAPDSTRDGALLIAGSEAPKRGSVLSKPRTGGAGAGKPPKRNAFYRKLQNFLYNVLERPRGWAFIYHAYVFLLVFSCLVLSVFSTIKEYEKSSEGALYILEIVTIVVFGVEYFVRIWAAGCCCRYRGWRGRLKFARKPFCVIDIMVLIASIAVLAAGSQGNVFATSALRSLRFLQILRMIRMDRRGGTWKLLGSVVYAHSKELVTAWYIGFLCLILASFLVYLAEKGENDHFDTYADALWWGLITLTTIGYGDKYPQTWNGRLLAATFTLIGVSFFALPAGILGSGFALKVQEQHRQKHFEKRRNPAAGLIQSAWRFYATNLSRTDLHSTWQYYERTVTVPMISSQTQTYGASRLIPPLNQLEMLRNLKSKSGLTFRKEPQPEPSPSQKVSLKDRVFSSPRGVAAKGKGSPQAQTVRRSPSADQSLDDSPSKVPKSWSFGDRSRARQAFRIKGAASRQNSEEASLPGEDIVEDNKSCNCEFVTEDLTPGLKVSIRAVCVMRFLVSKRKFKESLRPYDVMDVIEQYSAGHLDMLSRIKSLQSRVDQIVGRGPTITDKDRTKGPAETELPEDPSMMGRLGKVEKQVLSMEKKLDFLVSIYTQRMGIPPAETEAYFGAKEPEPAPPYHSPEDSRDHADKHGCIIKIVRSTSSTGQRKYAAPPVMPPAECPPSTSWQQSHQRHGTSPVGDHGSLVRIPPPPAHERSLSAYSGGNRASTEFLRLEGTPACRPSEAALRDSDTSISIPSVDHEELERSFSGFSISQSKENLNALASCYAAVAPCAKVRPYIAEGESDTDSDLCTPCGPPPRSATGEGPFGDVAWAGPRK
# KCNQ2 pot baseline: also measured in KCNQ2 pot; calls as there; B-score; compound at 10 µM; measured here: initial fluorescence intensity artifact check;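 brightness before thallium and not channel activity; 0 = typical well and far values either way flag optical interference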
# * marks the source's active call; other numbers are inactive results. The list is partial (hit frequency here may not be typical).
# Value order – KCNQ2 pot, KCNQ2 pot baseline
Cc1ccc(C)c(S(=O)(=O)N/N=C/c2ccc(F)cc2)c1
 : 1.5, -0.48
COCc1c(C(=O)N/N=C/c2c[nH]c3ccccc23)nnn1-c1nonc1N
 : 0.44, -0.06
COc1ccc(/C=N/NC2=NS(=O)(=O)c3ccccc32)cc1OC(C)=O
 : 2, -2.5
COc1ccc(CC(=O)Nc2ccc(S(=O)(=O)NCC3CCCO3)cc2)cc1 (centres undefined)
 : 0.49, -0.91
Nc1ccc(C(=O)NCc2ccccc2)cc1
 : 0.51, 0.26
CC(=O)Nc1cc(C(=O)N2CCCC2)ccc1Sc1ccc(Cl)cc1
 : 0.07, 2.4
Cc1ccc(C)c(N2CCN(C(=O)c3cc4ccccc4oc3=O)CC2)c1
 : 0.27, 0.88
Cc1cccc(-n2nnc3c(=O)n(CC(=O)Nc4cc(C)on4)cnc32)c1
 : 0.09, 0.61
O=C(Nc1ccc(S(=O)(=O)N2CCCC2)cc1)c1ccccc1
 : 0.97, 0.25
O=C(Nc1ccc(-n2nncc2-c2ccco2)cc1)c1cc2ccccc2oc1=O
 : 0.41, 0.55
CC1CCN(S(=O)(=O)N2CCC(C(=O)NCCC3=CCCCC3)CC2)CC1
 : 0.97, 0.75
O=C(Nc1ccc(C(=O)N2CCN(c3ccccc3)CC2)cc1)C1=CSCCO1
 : 1.1, -1.1
CN1C(=O)CSc2ccc(C(=O)O)cc21
 : 2.4, -0.97
CN1CCN(C(c2ccc(C(F)(F)F)cc2)c2ccc3cccnc3c2O)CC1 (centres undefined)
 : 0.82, 0.09
COc1ccc(OC)c(-n2c(SCC(=O)N3CCc4ccccc43)nc3c(c2=O)SCC3)c1
 : 0.65, 2.1
COCC(C)NC(=O)Cn1c(SCc2ccccc2)nc2ccccc21 (centres undefined)
 : 1.2, -0.2
COC(=O)/C=C/c1c(C)nc(NCc2ccccc2)nc1Cl
 : 1.5, 1.9
COc1ccc(/C=C/C(=O)OCC(=O)c2ccc3c(c2)NC(=O)CO3)c(OC)c1
 : 1.4, 0.74
CN(Cc1ccccc1)C(=O)COC(=O)c1ccc2c(c1)OCO2
 : 0.01, 0.79
CCOC(=O)C1CCN(S(=O)(=O)c2c(C)[nH]c(C)c2C(=O)N2CCCC2)CC1
 : 1.5, -0.04
CCn1c(=O)n(CC)c2cc(S(N)(=O)=O)c(C)cc21
 : 0.55, -1.1
CCn1cc(C(=O)N[C@H](C(=O)NC(C)(C)CO)C(C)C)c(=O)c2cc3c(cc21)OCO3
 : 1.2, 0
CC(C)(C)n1cnc2cc(NS(=O)(=O)c3ccccc3)ccc21
 : 0.54, 0.18
O=C(NNC(=O)c1cccc([N+](=O)[O-])c1)c1ccncc1
 : 0.51, 0.07
CC1CCN(C(=O)CSc2nnc(Cc3cc(=O)[nH]c(=O)[nH]3)n2-c2ccc(Cl)cc2)CC1
 : 0.22, -1.1
Cc1cccc(C)c1NC(=O)CN(C)C(=O)CC1Sc2ccccc2NC1=O (centres undefined)
 : 1.8, 3.8
O=C(CN1C(=O)NC2(CCOc3ccccc32)C1=O)c1ccc(Cl)cc1 (centres undefined)
 : 0.15, 1.7
CN1/C(=C\C=O)C(C)(C)c2ccccc21
 : 1.5, -0.55
Cc1cccc(OCC(=O)NCCNC(=O)c2ccco2)c1
 : 0.44, 0.63
NC(=O)C1(N2CCCCC2)CCN(Cc2ccc(Br)cc2)CC1
 : 0.01, -1.5
O=C(NC(=S)NC1CCSC1=O)c1cccs1 (centres undefined)
 : 0.18, 0.34
C=CCn1c(CC(=O)Nc2ccc(C)cc2C)nnc1SCC(=O)N1CCOCC1
 : 1.4, -1.1
Cc1ccc(Cn2c(C(C)Nc3nc(-c4ccc(Cl)c([N+](=O)[O-])c4)cs3)nc3cc(C(F)(F)F)ccc32)cc1 (centres undefined)
 : 1.7, 0.79
COc1ccc(C(=O)NCC(=O)n2nc(C)cc2C)cc1OC
 : 0.04, 0.86
COCCNC(=O)Cn1cc(/C=N/NC(=O)c2ccc(Oc3ccc(O)cc3)cc2)c2ccccc21
 : 0.38, -0.02
Cc1nc(C#N)c(N/N=C/c2c(F)cccc2Cl)o1
 : 1.3, -0.94
CCOC(=O)CSc1nnc(-c2ccc(OC)cc2OC)o1
 : 0.77, -2.1
CCc1cc2c(cc(C(=O)O)n2C)s1
 : 1, 0.69
O=C(COC(=O)/C=C/c1cccs1)Nc1cccc(S(=O)(=O)N2CCOCC2)c1
 : 0.4, 0.31
CCOC(=O)C(C)Oc1ccc2c(C)cc(=O)oc2c1C(C)=O (centres undefined)
 : 0.19, 0.88
COCCn1c(SCCCc2ccccc2)nc2c1c(=O)[nH]c(=O)n2C
 : 1.6, -0.01
CC(=O)c1cccc(N(C(=O)c2ccco2)C(C(=O)NC2CCCC2)c2cccs2)c1 (centres undefined)
 : 0.22, -0.46
COC(=O)n1c(=O)oc2cc(S(=O)(=O)N3CCOCC3)ccc21
 : 0.6, -1.7
O=C(CSCc1cc(=O)[nH][nH]1)Nc1ccc(F)cc1
 : 1, -0.4
Cc1cc(C(=O)N/N=C/c2ccc(C)o2)c2ccccc2n1
 : 0.01, 0.02
NC(=O)C1CCN(C(=O)C23CC4CC(CC(C4)C2)C3)CC1
 : 0.7, -0.9
CCOC(=O)[C@@H]1[C@H]2COc3cc(OC)ccc3[C@@H]2N2C(=O)N(c3ccc(OC)cc3)C(=O)[C@]12C
 : 1.1, -0.94
CCCc1nc2c(c(=O)c3ccccc3n2C)c(=O)n1-c1cc(C)cc(C)c1
 : 0.96, 0.1
COc1ccccc1CCNC(=O)C1CCC(=O)N(Cc2ccccc2OC)C1 (centres undefined)
 : 0.53, 1.3
O=C1C=C(O)c2c(O)cc(O)c(O)c2C1=O
 : 0.08, -1.9
COc1ccc(CCCc2nnc(SCc3nc4ccccc4c(=O)[nH]3)n2C)c(C)c1
 : 0.29, -0.95
COC(=O)/C=C1/S/C(=N/N=C/c2ccco2)NC1=O
 : 1.4, 0.01
Cc1n[nH]c(C)c1N1C(=O)c2cccc3cc(Br)cc(c23)C1=O
 : 0.01, 2.7
CC(C)c1cccc(C(C)C)c1NC(=O)COC(=O)C1CCC1
 : 1.5, 0.53
COc1ccccc1CNC(=O)c1cccc(C)c1[N+](=O)[O-]
 : 0.03, -0.06
CNC(=O)CSc1nnnn1CCCOC
 : 1.5, 0.35
CCn1c(SCC(=O)Nc2ccc3c(c2)OCCO3)nnc1-c1cccnc1
 : 0.79, -1.5
CCN(CC)CCCNC(=O)CSc1nc(-c2cccs2)cc(C(F)(F)F)n1
 : 0.75, 1.4
CSc1ccccc1OCc1cc(C(=O)N(C)Cc2ccncn2)no1
 : 0.56, 2.9
Cc1ccc(CNC(=O)c2cc3c(=O)n(C)c4ccccc4c3n2C)o1
 : 1.6, 0.13

# (more compounds)
# Value order – KCNQ2 pot, KCNQ2 pot baseline
Nc1cc2c(cc1[N+](=O)[O-])OCCOCCOCCO2
 : 0.57, -0.62
COc1ccc(OC)c(NC(=O)CCNC(=O)Cn2ccc3ccccc3c2=O)c1
 : 0.32, -0.18
COc1ccc(C(=O)CN2C(=O)NC3(CCCCC3)C2=O)cc1OC
 : 1.7, -0.12
O=C(Nc1nccs1)c1cccc(N2C(=O)c3cccc4c([N+](=O)[O-])ccc(c34)C2=O)c1
 : 0.56, -0.02
COCCNC(=O)CN1C(=O)NC2(CCCc3ccccc32)C1=O (centres undefined)
 : 0.48, 0.41
Cn1c(C(=O)c2ccncc2)cc2ccccc21
 : 2.2, 1.9
CC12CCC(=O)N1C(C(=O)N1CCN(c3ccc(C(F)(F)F)cc3[N+](=O)[O-])CC1)CS2 (centres undefined)
 : 0.84, 1.3
COCCNc1ncnc2c1cnn2Cc1ccc(Cl)cc1
 : 0.12, 0.09
COCCCn1c(=O)c2ccccc2n(CC(=O)NC2CCCCC2)c1=O
 : 0.92, 0.2
O=C(CSc1ncccn1)NCc1cccs1
 : 0.73, -1.6
O=C(CCSc1ccccc1)NC1CCCCCC1
 : 1.8, -0.51
O=C(CCCN1C(=O)/C(=C/c2ccccc2)SC1=S)Nc1ccc(O)cc1
 : 0.14, 1.2
CCc1ccc(OCC(=O)Nc2ccc3c(c2)COC3=O)cc1
 : 0.3, 4
C=CCC1NS(=O)(=O)OCC1NC(=O)OCC(Cl)(Cl)Cl (centres undefined)
 : 1.1, -0.9
CS(=O)(=O)c1nc(S(=O)(=O)c2ccc(Cl)cc2)c(N2CCC(C(N)=O)CC2)s1
 : 0.01, 1.2
Cn1cccc1C(C(=O)NC1CCCCC1)N(C(=O)Cc1cccs1)c1ccc2c(c1)OCO2 (centres undefined)
 : 0.04, 1.8
COc1ccc([N+](=O)[O-])cc1NC(=O)C1CCCO1 (centres undefined)
 : 0.19, 0.48
O=C(Nc1ccc(F)cc1)c1ccccc1NC(=O)C1CC=CCC1C(=O)O (centres undefined)
 : 0.78, 0.43
Cc1ccc(C)c(OCCC(=O)NNC(=O)c2ccccc2)c1
 : 0.25, -0.37
C=CCNC(=O)c1c(-c2c(F)cccc2Cl)noc1C
 : 0.3, -1.9
CC1N(C)c2cc(NC(=O)c3ccco3)ccc2C1(C)C (centres undefined)
 : 0.35, -0.14
CCOC(=O)CN(C(=O)c1snc(C(N)=O)c1N)C(C(=O)NCCC(C)C)c1ccc(F)cc1 (centres undefined)
 : 0.02, -2.4
CC(C)(C)c1cc(O)c(C(C)(C)C)cc1O
 : 4.6, -0.91
CCn1c(C)c(C)c2cc(C(=O)NCCc3ccco3)ccc21
 : 0.03, 0.29
CC(C)(C)NC(=O)C(=O)NNC(=O)COc1ccc(Br)cc1
 : 6.2*, 0.99*
O=C(O)COc1ccc2c3c(c(=O)oc2c1)CCC3
 : 2.1, 3.4
CCOC(=O)N/N=C(\C)c1ccc(C)c([N+](=O)[O-])c1
 : 0.36, -0.76
Cc1[nH]n(-c2ccc(Cl)c(Cl)c2)c(=O)c1CCO
 : 0.16, -1.6
COc1ccc2cc(CN(CCO)C(=O)c3ccc(Br)cc3)c(=O)[nH]c2c1
 : 0.07, -0.38
CCOc1ccccc1OCCOCCN1CCN(Cc2ccccc2)CC1
 : 0.54, 0.61

# Four of the entries above in order of their number in KCNQ2 pot, descending.
# Value order – KCNQ2 pot, KCNQ2 pot baseline
COCCCn1c(=O)c2ccccc2n(CC(=O)NC2CCCCC2)c1=O
 : 0.92, 0.2
COCCNC(=O)CN1C(=O)NC2(CCCc3ccccc32)C1=O (centres undefined)
 : 0.48, 0.41
COCCNc1ncnc2c1cnn2Cc1ccc(Cl)cc1
 : 0.12, 0.09
CCOC(=O)CN(C(=O)c1snc(C(N)=O)c1N)C(C(=O)NCCC(C)C)c1ccc(F)cc1 (centres undefined)
 : 0.02, -2.4

# The list goes on.
# Value order – KCNQ2 pot, KCNQ2 pot baseline
O=C(NC1CCCCCC1)c1ccc(CN2CCOCC2)cc1
 : 0.87, 0.79
COc1ccc(CNC(=O)C(=O)NCC(c2ccco2)N2CCOCC2)cc1 (centres undefined)
 : 1.6, -0.57
O=C(CCSCc1ccc(Cl)cc1)NC1CCCC1
 : 1.2, -0.39
CC1=CC(C)C(CN(CCC[N+](C)(C)C)C(=O)Nc2ccccc2)C(C)C1 (centres undefined)
 : 1.6, -0.48
COc1ccccc1CNC(=O)CSc1cc(=O)n(C)c2ccccc12
 : 0.29, -0.04
Fc1ccccc1-c1nc2nc3ccccc3nc2n1CC1CCCO1 (centres undefined)
 : 0.07, 0.94
COC(=O)c1ccccc1S(=O)(=O)N1CCC(C(=O)OCC(=O)NCC(F)(F)F)CC1
 : 2.6, 2.5
CC(C(=O)NCC1CCCO1)c1ccc([N+](=O)[O-])cc1 (centres undefined)
 : 0.66, 0.83
CCOc1ccc(C(=O)N[C@H](C(=O)Nc2cccc(S(=O)(=O)N3CCCCC3)c2)C(C)C)cc1
 : 0.18, 0.3
Cc1ccc(Cc2nnc(SCC(=O)Nc3ccccc3)n(N)c2=O)cc1
 : 0.01, 1.1
Cc1ccc(CN(Cc2ccco2)C(=S)NCC(=O)O)cc1
 : 0.08, 0.98
COc1ccccc1OC[C@H](O)CO
 : 0.96, -0.58
CN(C)CCCNS(=O)(=O)c1cc(Cl)c(Cl)cc1Cl
 : 1.1, 0.55
CCOC(=O)c1sc(/N=C/c2c(O)ccc3ccccc23)cc1C
 : 0.34, 2.7
Cc1ccc(C(=O)Nc2cnc3ccccn3c2=O)cc1
 : 0.72, -0.05
CC1=CC(C/C(C)=C/COc2ccc3ccc(=O)oc3c2)OC1=O (centres undefined)
 : 1.1, -0.06
COC(CNC(=O)c1ccc(N2CCCC2=O)cc1)OC
 : 0.5, -0.16
Cc1cc(C)c(S(=O)(=O)c2ccc(F)cc2C)c(=O)[nH]1
 : 2.2, -0.35
Cc1nnc(SCCOc2ccccc2)s1
 : 1.3, -1.3
COc1ccc(N2C(=O)CCC(C(=O)NCc3cccnc3)C2c2ccc(OC)c(OC)c2)cc1 (centres undefined)
 : 0.79, -0.22
O=C(Nc1ccc(-c2noc(CCc3ccccc3)n2)cc1)c1cccnc1
 : 0.42, 0.29
CCN(C(=O)c1c(N)cnn1C)c1ccccc1
 : 0.11, -1.4
O=C(NCCN1CCOCC1)NC1(C(F)(F)F)Oc2ccc(Cl)cc2O1 (centres undefined)
 : 0.5, -0.66
Cc1noc(C)c1C1(O)CCCCCCCCCCC1
 : 1.4, 3.3
O=C(COc1coc(CN2CCN(c3ccccc3)CC2)cc1=O)Nc1cccc(F)c1
 : 0.14, -0.05
Cc1cccc(NC(=O)c2ccc(-n3cncn3)c([N+](=O)[O-])c2)c1
 : 1.4, 0.91
O=C(NCCc1c[nH]c2ccccc12)c1ccco1
 : 1.4, 1
CCOc1cc(/C=N/NC(N)=O)cc(Br)c1OCC(=O)Nc1cccc2ccccc12
 : 0.88, -0.06

# Compound profiles, from the list above.
# O=C(NCCN1CCOCC1)NC1(C(F)(F)F)Oc2ccc(Cl)cc2O1 (centres undefined) as listed: KCNQ2 pot: 0.5; KCNQ2 pot baseline: -0.66
# Cc1nnc(SCCOc2ccccc2)s1 as listed: KCNQ2 pot: 1.3; KCNQ2 pot baseline: -1.3
# CC1=CC(C/C(C)=C/COc2ccc3ccc(=O)oc3c2)OC1=O (centres undefined) as listed: KCNQ2 pot: 1.1; KCNQ2 pot baseline: -0.06
